Screens deposited in PubChem by National Center for Advancing Translational Sciences (NCATS).
Rango release inh: inhibitors of RanGTP-induced Rango-importin beta complex dissociation; O95149+P62826; Biochemical FRET Rango-importin beta, RanGTP-induced dissociation; Potency, µM (titrated, usually from 46.1 µM), inactives show at the highest dose activity change, negative = inhibition; hit rate 0.071% among 340,000; AID 540253; active means falling FRET ratio curve, often poorly fitted, with flat reads before Ran was added; inconclusive means other falling curves, or compound fluorescence or quenching; inactive means flat or rising ratio curve;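 further: potency means the concentration at half of the fitted maximal effect; % of control where 0% means no effect; nearly all actives have a fitted effect of over 45% in size; -100% = wells without RanGTP and RCC1; the record marks most hits as doubtful in a second field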
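Rango FRET biosensor (snurportin-1 IBB flanked by N-terminal EYFP and C-terminal CFP10) at 0.1 uM, with 0.25 uM importin beta in PBS, 1mM DTT, 0.02% Tween-20, 0.1% BSA. 0.6 uM Ran, 2mM GTP and 0.2 uM RCC1 were then added for 45 min at room temperature. Inhibition read as loss of FRET rise.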
GLA inh pH 4.5: inhibitors of human alpha-galactosidase A at pH 4.5 | P06280 | purified enzyme, 4-MU-alpha-Gal fluorescence, pH 4.5 | activity change, negative = inhibition, % at 105 µM | 230,000 tested, under 10 active | AID 1467; inconclusive = small, poorly fitted or top-dose-only inhibition, or a rising curve; inactive = flat fitted curve, though single readings scatter; no compound was filed as active;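 further: 0% = full activity with enzyme and -100% = basal without enzyme; dose as in the result columns while the protocol names 77 µM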
miR-21 reporter: raises the signal of a miR-21 reporter | HeLa miR-21 FLuc reporter, luciferase, 48 h | Potency, µM (top dose mostly 38.3 µM), inactives show at the highest dose reporter change, positive = more light | 340,000 tested, under 10 active | AID 2288; active = well fitted rising curve with a large enough effect; inconclusive = small, poorly fitted or top-dose-only effect; inactive = no such curve, though single readings can be large or run the other way;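 further: % of control where 0% means no effect; miR-21 action dims this reporter so a rising signal means less miR-21 action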
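HeLa miR-21-FLuc reporter line, endogenous miR-21; 2000 cells/well in DMEM/10% FBS; compound titration up to ~40uM final, 48 h, 37 degree Celsius; luciferase detection reagent, 15 min lysis, CCD luminescence.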
Rango complex inh: Rango-importin beta binding inhibition; Potency, µM (series often up to 92.2 µM), for the others: at the highest dose inhibition of complex formation; hit rate 0.031% among 340,000; Q14974; Rango CFP/YFP FRET sensor + importin beta, 45 min; AID 540263; active = rising FRET ratio curve, often small or poorly fitted; inconclusive = mostly compound fluorescence or quenching in the first reads; inactive = flat curves in all reads;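 further: potency means the concentration at half of the fitted maximal effect; 0% = DMSO wells and 100% = buffer wells lacking importin beta; nearly all actives have a fitted effect of over 15% in size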
Target sequence (Q14974 whole entry, looked up): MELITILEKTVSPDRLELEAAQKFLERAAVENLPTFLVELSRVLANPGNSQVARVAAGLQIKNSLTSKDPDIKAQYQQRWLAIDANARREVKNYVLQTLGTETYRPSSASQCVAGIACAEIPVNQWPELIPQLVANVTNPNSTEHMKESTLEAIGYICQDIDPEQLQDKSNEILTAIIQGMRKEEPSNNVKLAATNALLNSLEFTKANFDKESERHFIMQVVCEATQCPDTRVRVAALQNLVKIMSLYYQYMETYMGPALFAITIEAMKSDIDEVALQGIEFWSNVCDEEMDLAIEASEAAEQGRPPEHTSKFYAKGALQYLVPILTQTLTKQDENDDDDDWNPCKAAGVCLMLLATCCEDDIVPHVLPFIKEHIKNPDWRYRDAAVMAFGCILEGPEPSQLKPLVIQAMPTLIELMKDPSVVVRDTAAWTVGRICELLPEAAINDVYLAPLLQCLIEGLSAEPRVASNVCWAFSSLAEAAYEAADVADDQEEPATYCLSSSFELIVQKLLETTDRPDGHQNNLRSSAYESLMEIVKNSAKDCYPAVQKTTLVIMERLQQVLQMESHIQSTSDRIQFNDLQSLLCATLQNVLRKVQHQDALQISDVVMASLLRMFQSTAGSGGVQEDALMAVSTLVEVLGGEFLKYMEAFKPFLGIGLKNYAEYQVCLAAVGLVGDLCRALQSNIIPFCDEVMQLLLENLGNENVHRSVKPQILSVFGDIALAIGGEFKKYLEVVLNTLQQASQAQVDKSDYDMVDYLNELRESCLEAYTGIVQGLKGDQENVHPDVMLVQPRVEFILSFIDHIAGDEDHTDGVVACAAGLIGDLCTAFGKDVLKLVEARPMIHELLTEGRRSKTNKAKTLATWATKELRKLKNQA
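FRET biosensor (snurportin 1 IBB flanked by EYFP and cerulean), 50 nM, with compound 5 min, then 0.125 microM importin beta in PBS, 1 mM DTT, 0.02% Tween-20, 0.1% BSA. CFP/YFP ratio read after 45 min at room temperature; pre-read flags interference.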
* marks the source's active call; other numbers are inactive results; ? = inconclusive; · = no result given; & = joins results of further samples.

mol,GLA inh pH 4.5,miR-21 reporter,Rango release inh,Rango complex inh
CN1C(=O)NC(NS(=O)(=O)c2ccc(N)cc2)(C(F)(F)F)C1=O (stereo unspecified),10,-2%,-6%,-4.3%
O=C(NCc1ccccc1Cl)C1=CC=CN2CCS(=O)(=O)N=C12,·,·,-23%,0.3%
COc1ccc(S(=O)(=O)N2CCOCC2)cc1NC(=O)COC(=O)CC1CC2CCC1C2 (stereo unspecified),·,·,-1%,6.7%
CC(=O)OCCNc1cc(N2CCN(C)CC2)c2noc3c2c1C(=O)c1ccccc1-3,0,1%,24%,11%
CCc1ccc(NC(=O)Cn2ncc3c4ccccc4n(C)c3c2=O)cc1,-5,7%&-2%,0%,-3.7%
COc1ccc(-c2nnc(CSc3nc4ccccc4c(=O)n3C)o2)cc1OC,3,-1%,-12%,2.2%
CC1(C)S[C@@H]2[C@H](NC(=O)COc3ccccc3)C(=O)N2C1C(=O)OCc1ccccc1 (stereo partly specified),·,·,-16%,-5.9%
C=CC[C@@H](CC(=O)N(CCO)Cc1ccccc1)C(=O)N[C@@H](COC(=O)[C@@H](CC=C)Cc1ccc(F)cc1)Cc1ccccc1,·,·,-2%,-0.9%

Next section.
mol,GLA inh pH 4.5,miR-21 reporter,Rango release inh,Rango complex inh
COc1ccccc1/C=C/CN1CCCC(CCC(=O)NCc2ccccc2F)C1 (stereo unspecified),-9,2%,-1%,-2.0%
CCN(CC(=O)Nc1ccc(OC)cc1)C(=O)C1CCN(C(=O)c2ccc(Cl)cc2)CC1,·,·,-7%,-3.8%
CCOC(=O)c1[nH]c2c(c1C)C(=O)CC(c1ccc(OC)c(OC)c1)C2 (stereo unspecified),4,-5%,-9%,-1.7%
COC(=O)c1ccc(NC(=O)CSc2nnc(-c3ccccc3Br)n2-c2ccccc2)cc1,·,·,-6%,3.6%
CCCCC(CC)CNS(=O)(=O)c1ccc2c(c1)CCN2C(=O)CCC(=O)O (stereo unspecified),1,-2%,-4%,-2.9%
Cc1ccccc1CS(=O)(=O)c1nnc([C@H](Cc2ccccc2)NC(=O)OC(C)(C)C)o1,-8,?,7%,5.7%
Cc1ccc(OCCC(=O)OCC(=O)c2c(N)n(C)c(=O)n(C)c2=O)cc1,·,·,34%,-0.4%
CCCCn1c(=O)c(-c2ccccc2)c(O)c2ccccc21,2,-4%,3%,0.5%

(listing goes on)
mol,GLA inh pH 4.5,miR-21 reporter,Rango release inh,Rango complex inh
CCCCn1c(=O)c2c(O)cc(=O)oc2c2ccccc21,1,-4%,-9%,-3.8%
O=C(Cc1ccc(S(=O)(=O)N2CCOCC2)s1)N1CCN(S(=O)(=O)c2ccccc2[N+](=O)[O-])CC1,·,·,1%,-2.1%
COc1cccc(NC(=O)CN(C)CC(=O)Nc2ccc3c(c2)CCC3)c1,3,2%,18%,-0.8%
CN(C(=O)c1ccc(S(=O)(=O)c2cccc(Cl)c2)c([N+](=O)[O-])c1)C1CCCCC1,4,-7%,0%,-0.1%
CNc1ccc(C(=O)OCC(=O)NCc2ccc3c(c2)OCO3)cc1[N+](=O)[O-],·,·,-29%,-3.9%
COC(=O)[C@@]1(Cc2ccc(F)cc2)[C@H]2c3cc(C(=O)N(C)C)n(CCc4ccc(OC)c(Br)c4)c3C[C@H]2CN1C(=O)c1ccccc1,-3&-6,-6%,35%,-2.1%
O=C(O)CCn1c(C2CCCCC2)nc2ccccc21,10,0%,22%,-3.1%
CCn1c(SCC(=O)Nc2ccc(OC)c(OC)c2)nnc1-c1cnccn1,·,6%,22%,-1.4%

(list continues)
mol,GLA inh pH 4.5,miR-21 reporter,Rango release inh,Rango complex inh
COc1cc(/C=C/C(=O)Nc2nnc(C(C)(C)C)s2)cc(OC)c1OC,1,14%,?,-7.1%
Cc1ccc2c(c1)c1c3n2CCN(CC#N)C3CCC1 (stereo unspecified),·,-21%,9%,-3.6%
COc1ccc(-c2csc(NC(=O)CCn3cnc4ccccc4c3=O)n2)cc1OC,11,1%,2%,0.3%
CC(C)OCCCNC(=O)C1CC(=O)N(CCc2ccc(F)cc2)C1 (stereo unspecified),·,5%,-2%,-0.3%
CO[C@H]1[C@@H]2C=CO[C@@H](O[C@H]3O[C@@H](CO)[C@H](O)[C@@H](O)[C@@H]3O)[C@@H]2[C@@]2(CO)O[C@@H]12,·,·,-16%,-1.2%
O=C(Nc1ccccc1)C1CCOC1=O (stereo unspecified),·,·,37%,-3.3%
O=C(COC(=O)c1ccc(S(=O)(=O)NCc2ccco2)cc1)NCCC1=CCCCC1,6,-4%,-2%,0.5%
COc1cc(S(=O)(=O)N2CCN3CCCC3C2)ccc1-n1cnnn1 (stereo unspecified),4,-1%,-5%,-5.8%

Going on with the list.
mol,GLA inh pH 4.5,miR-21 reporter,Rango release inh,Rango complex inh
Cn1ncc2c(Nc3ccc(Cl)cc3)ncnc21,·,-38%,7%,2.9%
O=C(N[C@@H](Cc1ccccc1)C(=O)N1CCC2(CC1)NCCc1[nH]cnc12)c1cccc(Br)c1,·,-2%,1%,-0.2%
O=C(C[n+]1cc(-c2ccc(Br)cc2)n2c1CCCCC2)c1ccccc1,6,26%,19%,2.4%
CCOC(=O)c1cc2c(=O)n3cccc(C)c3nc2n(Cc2ccccc2Cl)c1=N,0,-1%,·,·
CCOc1ccc(S(=O)(=O)Nc2ccc(S(=O)(=O)Nc3cc(OC)ccc3OC)cc2)cc1,0,-1%,3%,10%
O=C(C(c1ccccc1)c1ccccc1)N1CCOCC1,-4,-2%,1%,1.3%
CC(NC(=O)/C(=C\c1cccc([N+](=O)[O-])c1)NC(=O)c1ccco1)C(=O)O (stereo unspecified),·,-5%,-11%,-0.1%
COc1cccc(-c2nc(CS(=O)CC(=O)NCCc3ccc(C)cc3)c(C)o2)c1 (stereo unspecified),·,0%,18%,-0.3%

More entries.
mol,GLA inh pH 4.5,miR-21 reporter,Rango release inh,Rango complex inh
C=CCOn1c(=O)c(-c2ccc(Cl)cc2)[n+]([O-])c2ccccc21,·,-4%,1%,0.3%
CCN(Cc1nc(-c2ccc(Cl)cc2)no1)CC1CCCO1 (stereo unspecified),-7,-17%,-6%,-5.8%
COc1ccc(-c2oc3c(OC)c(OC)c(OC)c(O)c3c(=O)c2OC)cc1OC,-5,24%,?,?
COc1ccc(-n2nc(C(=O)NCC(=O)NCCCN3CC(C)CC(C)C3)c3ccccc3c2=O)cc1 (stereo unspecified),·,0%,36%,2.8%
N/C(Cc1nc(-c2ccc(Br)cc2)cs1)=N\O,-10,-28%,-5%,4.1%
CS(=O)(=O)N(CC(=O)Nc1ccc(Br)cc1)C1CCCCC1,·,19%,-4%,-1.4%
CCCCCCSc1cc(-c2nc3ccc(Cl)cn3c2NC2CCCCC2)ccc1OC,·,·,-18%,-2.5%
O=C(O)c1ccccc1C(=O)NCCCn1ccnc1,·,1%,-11%,-0.1%

More entries:
mol,GLA inh pH 4.5,miR-21 reporter,Rango release inh,Rango complex inh
CC1=C(C(=O)OCc2ccccc2)C(c2ccc(C#N)cc2)NC(=O)N1CCCC(=O)O (stereo unspecified),-15,-2%,-5%,-0.7%
CC(/C=C/C=C/c1ccccc1)=N/NC(=O)CNc1ccccc1C,-4,-6%,-3%,0.1%
Cn1cccc1Cc1nnc(SCC(=O)NCc2ccco2)n1CCc1ccccc1,-13,-1%,-11%,1.1%
COC(=O)c1cc(C(=O)Nc2cccc(C)n2)cc([N+](=O)[O-])c1,-4,1%,1%,-1.3%
COc1cc(CNn2cn[nH]c2=S)cc(Br)c1OCc1ccccc1F,4,2%,-7%,0.4%
O=C1CC(c2ccco2)CC(O)=C1C=NCC1CCNCC1 (stereo unspecified),-8,3%,1%,-0.7%
COc1ccc(/C(C)=N/Nc2nc3ccccc3n3cnnc23)cc1OC,-4,-32%,1%,3.6%
CS(=O)(=O)c1ccc(C(=O)NCc2ccccc2F)cc1,-6,-2%,7%,2.9%

The listing continues:
mol,GLA inh pH 4.5,miR-21 reporter,Rango release inh,Rango complex inh
CCOc1ccc(N2C(=O)CC(N3CCC(NC(=O)Nc4ccccc4)CC3)C2=O)cc1 (stereo unspecified),2,-19%,-2%,-1.1%
COC(=O)CCCN=C1SCCN1Cc1ccccc1,·,-6%,0%,-1.8%
Cc1ccc(OCC(=O)O/N=C(\N)Cc2ccc([N+](=O)[O-])cc2)cc1C,2,-3%,-13%,0.7%
CSC1=C(C#N)C(c2sccc2C)CC(=O)N1 (stereo unspecified),3,0%,13%,1.2%
COc1ccc(NC(=O)CSc2nc3sc(C)cc3c(=O)n2C)cc1,·,1%,-19%,0.5%
COc1ccc(CNc2nc(NCc3ccc(OC)c(OC)c3)n(C(=O)c3cccs3)n2)cc1OC,-14,-19%,-14%,-4.6%
CCOc1ccc(N2CC(C(=O)NCc3cccc(C)c3)CC2=O)cc1 (stereo unspecified),8,-2%,9%,-0.9%
Cc1ccc(-c2nnc(-c3ccccc3)o2)cc1,6,-50%,7%,-0.8%

Going on with the list:
mol,GLA inh pH 4.5,miR-21 reporter,Rango release inh,Rango complex inh
Cc1ccc(S(=O)(=O)N2CCN(C(=O)COC(=O)c3ccc(Cl)c(S(N)(=O)=O)c3)CC2)c(C)c1,·,·,11%,-0.1%
CC12CCC(C)(O1)C1C(=O)N(c3nccs3)C(=O)C12 (stereo unspecified),·,·,-8%,0.5%
Cc1ccc(C(=O)Nc2ccc(NC(=O)c3ccc(C)o3)cc2)o1,·,-8%,-7%,0.5%
Brc1ccccc1CN1CCN(Cc2c[nH]c3ccccc23)CC1,·,·,1%,2.7%
COC(=O)c1cc(NC(=O)Cc2cc(OC)c(OC)c(OC)c2)cc(C(=O)OC)c1,-1,4%,5%,-0.8%
C/C(CC(=O)NC(C)(C)C)=N\NC(=O)c1ccco1,-5,-62%,?,1.6%
CCN(CC)C(=O)COc1coc(CN2CCN(c3ccccc3)CC2)cc1=O,·,0%,2%,0.1%
O=C(CS(=O)(=O)c1ccccc1)c1cc2ccccc2oc1=O,·,-11%,?,?

(continued)
mol,GLA inh pH 4.5,miR-21 reporter,Rango release inh,Rango complex inh
O=C1CCc2cc(S(=O)(=O)Nc3ccc(F)cc3)cc3c2N1CC3,·,·,-14%,2.7%
O=C(CCCc1nc2ccccc2s1)Nc1ccc(N2CCOCC2)cc1,1,-5%,9%,-0.5%
O=S(=O)(c1ccc(Cl)cc1)N1CCCC(C(F)(F)F)C1 (stereo unspecified),8,0%,2%,-6.5%
COc1ccc(C(C)(C)C)cc1NC(=O)COC(=O)C(C)C,-3,-2%,1%,0.2%
Cc1ccccc1C1CC(=O)NC2=C1C(=O)CCC2 (stereo unspecified),2,-2%,-22%,-6.9%
CCC(CC)C(=O)N1CC(=O)Nc2ccc(Br)cc2C1c1ccccc1 (stereo unspecified),-6,0%,18%,-5.0%
CN(C)c1ccc(/C=N/NC(=O)c2ccn(C)n2)cc1,-4,-34%,1%,-2.7%
COc1ccc(S(=O)(=O)NCC2CCCN(C(=O)c3ccccc3)C2)cc1 (stereo unspecified),-3,-5%,1%,-0.3%

The list continues:
mol,GLA inh pH 4.5,miR-21 reporter,Rango release inh,Rango complex inh
CC(=Nc1ccccc1C(F)(F)F)c1ccncc1,·,2%,31%,-1.9%
O=c1c2ccccc2nnn1CSc1nnc(COc2ccc(Cl)cc2)n1Cc1ccco1,-1,-3%,-10%,-2.8%
C=CCNC(=O)C1CC(=O)N(c2ccc(OCC(=O)Nc3ccc(CC)cc3)cc2)C1 (stereo unspecified),·,-2%,-8%,1.5%
CCc1noc(C)c1C(=O)N1CCN(S(=O)(=O)c2c(C)c(C)cc(C)c2C)CC1,·,·,-13%,-5.5%
COc1ccc(CNC(=O)CNC(=O)c2ccc(Br)o2)cc1OC,·,1%,-9%,0.3%
CC(C)(C)C(=O)COC(=O)C1CC(=O)N(c2ccccc2)C1 (stereo unspecified),-4,0%,-6%,-0.3%
COC(=O)[C@H](Cc1ccccc1)NC(=O)NCc1cccs1,-1,-1%,8%,0.8%
CCCCC(=O)Nc1cc([N+](=O)[O-])ccc1Cl,-2,-3%,12%,2.2%
COc1cc(OC)cc(C(=O)N[C@H](C(=O)OCC(=O)Nc2ccc(C)cc2C)C(C)C)c1,-5,1%,-5%,-1.2%

This is a subset, so the mix of outcomes need not match the whole.
